Screening data (PubChem)
CtBP-E1A inh – qHTS Assay for Inhibitors of the CtBP/E1A Interaction; CtBP / adenovirus E1A interaction (AlphaScreen); AlphaScreen GST-E1A/His-CtBP binding, 1536-well; active compounds read low; control for the full effect not named in the record; activity change, % (no concentration beside the values); hit rate 0.49% among 340,000; in the data active means activity change below about -65%; inconclusive means about -30% to -65%; inactive means above about -30%; also: % is scaled to controls: 0 for no effect and ±100 for the full control effect
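Protein mix (5X: 125 nM each GST-E1A, His-CtBP) was incubated with pinned compound 2 h at 37 deg C in dark, in 50 mM Tris pH 8.0 buffer with 300 mM NaCl. Glutathione donor and nickel acceptor beads followed; AlphaScreen signal read after 1 h.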
gsp ag – qHTS for Agonist of gsp, the Etiologic Mutation Responsible for Fibrous Dysplasia/McCune-Albright Syndrome: qHTS; gsp mutant cells, cAMP HTRF, 30 min; control for the full effect not named in the record; Potency, µM (highest dose often 76.9 µM), inactives show at the highest dose activation (cAMP increase), hits mostly activators; hit rate 0.13% among 340,000; active = well fitted activation curve with a large enough effect; inconclusive = small, poorly fitted or top-dose-only effect, or another doubt; inactive = no such curve, though single readings can be large or run the other way; cell line not stated here;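 also: phosphodiesterase inhibitor Ro 20-1724 added with compounds to block cAMP breakdown; potency is read from the fitted curve at half-maximal effect; nearly all actives have a fitted effect of over 60% in size; about a fifth of the inactives were tested at one dose only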
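Cells stably selected in G418 were plated at 2000/well, grown 16-24 hr, then given compounds in DMSO with the PDE inhibitor […] (300 uM solution added) for 30 min at 37C; cAMP was read by HTRF.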
Sfp inh – qHTS Assay for Inhibitors of Bacillus subtilis Sfp phosphopantetheinyl transferase (PPTase); 4'-phosphopantetheinyl transferase ffp (Bacillus subtilis), Q9F4F7; Biochemical Sfp PPTase activity, qHTS; Potency, µM, without a hit: max response, negative = inhibition, most hits filed as inhibitors; hit rate 3.5% among 310,000; AID 1490, 2009; active = well fitted inhibition curve with a large enough effect; inconclusive = small, poorly fitted or top-dose-only effect, or another doubt; inactive = no such curve, though single readings can be large or run the other way;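 also: the enzyme is Sfp with the accession as filed and its product quenches rhodamine fluorescence; potency is read from the fitted curve at half-maximal effect; 0% = enzyme reaction without inhibitor and -100% = no enzyme wells; top concentration of the series not given in the record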
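Fluorescence-quenching assay: 15 nM Sfp-PPTase preincubated 15 min at room temperature with compound, then 5 uM rhodamine-CoA and 12.5 uM BHQ-2-labelled YbbR peptide added. Fluorescence (ex 525/em 598 nm) read at start and after 30 min; difference gives rate.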
gsp antagonist – qHTS for Antagonists of gsp, the Etiologic Mutation Responsible for Fibrous Dysplasia/McCune-Albright Syndrome: qHTS. gsp-mutant cells, cAMP HTRF, 30 min; control for the full effect not named in the record. Potency, µM (doses to about 76.9 µM), for the others: at the top dose activity change, negative = inhibition, most hits filed as inhibitors. hit rate 0.4% among 340,000. AID 624288, 2012; active = falling curve of any shape with a large fitted effect; inconclusive = falling curve, mostly with a smaller effect; inactive = flat or rising curve; cell line not stated here;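 also: intracellular cAMP measured with PDE inhibitor Ro 20-1724 present during compound exposure; potency is read from the fitted curve at half-maximal effect; % is scaled to controls: 0 for no effect and ±100 for the full control effect; nearly all actives have a fitted effect of over 65% in size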
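HTRF cAMP read-out (cAMP-d2 plus anti-cAMP antibody-K in lysis buffer, 30 min RT). Before lysis, cells are exposed to compounds with […] for 30 min at 37C in DPBS containing Ca/Mg, BSA and Tween 20.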
Menin MLL FP FL – qHTS Assay for Inhibitors Targeting the Menin-MLL Interaction in MLL Related Leukemias: Competition With Fluorescein Labeled MLL-derived Peptide; Fluorescence polarization, fluorescein-MLL peptide displacement from menin; FP activity change, % at 61.4 µM; 290,000 tested, under 10 active; AID 1766, 2009; inconclusive = falling polarisation curve, or a change in total fluorescence; inactive = total fluorescence flat and polarisation flat or rising; no compound was filed as active; the % refers to the polarisation; negative = inhibition;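 also: % of control where 0% means no effect; inhibitors lower the polarisation; unlabelled MLL peptide was the positive control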
ClpP mod – qHTS Assay for Activators of ClpP. purified B. subtilis ClpP, FRET peptide cleavage, 20 min. Potency, µM (doses to about 57.5 µM), without a hit: at the highest dose activity change, negative = active. hit rate 1.9% among 340,000; active = well fitted falling curve with a large enough effect; inconclusive = small, poorly fitted or top-dose-only effect; inactive = no such curve, though single readings can be large or run the other way; also: potency is read from the fitted curve at half-maximal effect; the source files actives as falling curves though it sought activators and does not explain the sign; nearly all actives have a fitted effect of over 65% in size; many hits overshoot -100%
Target sequence (P80244 whole entry, looked up): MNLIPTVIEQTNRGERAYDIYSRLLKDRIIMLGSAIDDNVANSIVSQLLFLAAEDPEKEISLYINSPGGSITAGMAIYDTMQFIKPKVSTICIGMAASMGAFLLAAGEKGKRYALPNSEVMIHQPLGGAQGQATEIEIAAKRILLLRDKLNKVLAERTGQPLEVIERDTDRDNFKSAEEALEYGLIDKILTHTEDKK
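Buffer: 100 mM Tris/HCl pH8, 100 mM KCl, 0.05% low protease BSA, 2.5% glycerol, 0.01% Tween-20. ClpP 10 microg/mL final; 20 min RT; delta FRET normalized to ADEP and DMSO controls.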
TRPV1 PAM – HTS Assay for Compounds that Act as Potentiators of the Vanilloid Receptor 1; TRPV1-expressing cells, Fluo-8 calcium influx, capsaicin EC20 potentiation; host cell line not named in the record; control for the full effect not named in the record; Transient receptor potential cation channel subfamily V member 1 (Homo sapiens), Q8NER1; hit rate 0.02% among 320,000; potentiation, % at 8.33 µM; active means potentiation above 80%; inconclusive means 30% to 80%; inactive means below 30%; also: 0% is about no effect
Target sequence (Q8NER1 whole entry, looked up): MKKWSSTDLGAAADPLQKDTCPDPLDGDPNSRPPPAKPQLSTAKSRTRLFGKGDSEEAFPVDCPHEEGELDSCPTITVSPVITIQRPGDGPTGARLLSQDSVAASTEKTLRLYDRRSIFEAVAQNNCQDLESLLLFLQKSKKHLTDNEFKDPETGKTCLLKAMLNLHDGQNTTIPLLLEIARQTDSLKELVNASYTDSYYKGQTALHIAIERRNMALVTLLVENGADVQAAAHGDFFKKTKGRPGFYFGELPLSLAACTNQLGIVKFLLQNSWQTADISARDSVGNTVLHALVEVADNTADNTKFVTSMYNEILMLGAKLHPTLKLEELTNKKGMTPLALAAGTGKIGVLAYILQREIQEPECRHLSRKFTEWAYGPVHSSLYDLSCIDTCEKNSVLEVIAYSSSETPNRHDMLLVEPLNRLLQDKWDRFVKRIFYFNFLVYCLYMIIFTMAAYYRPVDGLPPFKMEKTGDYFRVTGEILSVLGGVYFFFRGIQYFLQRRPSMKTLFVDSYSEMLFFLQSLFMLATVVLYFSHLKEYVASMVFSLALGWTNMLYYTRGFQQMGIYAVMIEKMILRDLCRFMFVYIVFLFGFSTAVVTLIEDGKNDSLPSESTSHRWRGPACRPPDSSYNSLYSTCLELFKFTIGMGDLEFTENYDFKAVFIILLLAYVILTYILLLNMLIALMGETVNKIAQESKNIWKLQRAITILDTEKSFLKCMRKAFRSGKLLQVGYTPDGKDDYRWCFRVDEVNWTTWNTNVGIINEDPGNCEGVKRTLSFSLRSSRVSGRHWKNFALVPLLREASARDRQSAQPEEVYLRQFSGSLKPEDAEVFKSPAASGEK
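Fluo-8 calcium influx in TRPV1-expressing cells, kinetic read (ex 480/em 520 nm). Compound added and read 3 min for agonist activity, followed by capsaicin at EC20 final and 2 min further read for enhancement.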
* = called active by the depositor; ? = inconclusive; . = no result given; [ ] = remark or other dose. Compounds as they come; overall some 5.3% were active at least once.

SMILES	CtBP-E1A inh	gsp ag	Sfp inh	gsp antagonist	Menin MLL FP FL	ClpP mod	TRPV1 PAM
CC(C)CN1CCN(Cc2cccn2-c2ccc(Cl)cn2)CC1CCO (centres undefined)	-0.7	-2.3%[15.4 µM]	7.7%	-6.0%	-2.3	2.1%	2.8
CS(=O)(=O)Nc1ccccc1C(=O)NCCSCc1ccccc1	0.0	-1.2%[15.4 µM]	8.3%	-16.0%	-1.6	.	6.3
O=C(COc1ccc(Br)cc1CNC1CCCC1)Nc1ccccc1	3.6	24.7%	-19.1%	5.7%	1.2	.	?
COc1cc2c(C)nc3c(cnn3-c3ccccc3)c2cc1OC	-8.7	?	9.4%	-20.5%	3.7	3.8%	-7.2
Cc1cccc(-n2c(C)c(C)c3c(N)ncnc32)c1	-8.4	0.5%[15.4 µM]	10.9%	-14.2%	-7.8	.	-1.9
CC(C)CCNC(=O)[C@H](CC(C)C)NC(=O)[C@H]1O[C@@H]1C(=O)O	.	.	18.3%	.	-2.5	.	-5.4
COc1ccc(O)c(/C=N/N=C2/C(=O)Nc3ccccc32)c1	8.3	?	5.2%	?	0.2	-1.0%	4.9
CCCCCCOc1ccc(N2C(=O)CC(N3CCN(CCN=CC4=C(O)CC(C)(C)CC4=O)CC3)C2=O)cc1 (centres undefined)	5.9	-16.7%	-17.1%	10.3%	0.2	1.0%	-9.8
C=CCn1c(SCC(=O)Nc2ccc(C(=O)OC(C)C)cc2)nnc1-c1cccs1	9.3	?	14.5%	19.9%	?	428.4%	-3.0
CN(C)NC(=O)C12CCC(C)(C(=O)O1)C2(C)C (centres undefined)	.	-36.8%	13.7%	7.6%	-2.7	-3.8%	1.6
CCOC(=O)c1[nH]c2ccccc2c1NC(=O)c1nonc1C	-5.4	?	11.5%	6.5%	-2.5	-1.8%	-5.6
Cc1ccc(S(=O)(=O)NCCSc2nnnn2-c2ccc(C(N)=O)cc2)cc1	-1.6	-43.3%	5.2%	-3.0%	3.8	-0.7%	-23.1
OCCN1CCN(CCSc2ccccc2)CC1	2.5	11.9%	-4.2%	8.9%	-0.4	-7.7%	18.6
COc1ccc(CCNC(=S)Nc2ccccc2C)cc1	-5.6	?	0.0%	-4.7%	0.6	-1.5%	21.6
Cc1cc(NC(=O)c2ccc(N3C(=O)CCC3=O)cc2)no1	0.9	4.4%	12.3%	1.5%	1.4	0.5%	3.2
OC(COc1ccc(CNCc2cccnc2)cc1)CN1CCc2ccccc2C1 (centres undefined)	.	?	-1.6%	10.4%	-1.0	-0.9%	0.4
CC(=O)N1C(C)c2ccccc2C(C)(C)CC12CCCCC2 (centres undefined)	17.1	-8.7%	0.5%	-14.8%	0.0	74.5%	-2.6
Cc1nc(N2CCCCC2)sc1C(=O)c1cccc([N+](=O)[O-])c1	-29.4	-3.0%[15.4 µM]	7.1%	-23.2%	-12.1	.	2.7
Cc1ccc(CNC(=O)Cn2cnc(C(=O)Nc3ccc(C)c(C)c3)n2)o1	-3.2	.	.	2.1%	.	-16.3%	.
O=C(NCC1CCCO1)c1ccc(-c2ccccc2Cl)o1 (centres undefined)	-24.8	-34.6%[inhibitor]	.	-2.2%	.	?	6.5
CCOc1ccccc1NC(=O)C(=O)/C=C(\O)c1cc(OC)ccc1OC	0.8	14.8%	-14.3%	-5.5%	4.2	0.0%	5.4
Cc1ccc(/C=N/n2c(C)nc3ccccc3c2=O)o1	-1.3	13.8%	3.5%	8.6%	0.2	0.9%	-13.5
CN(C(=O)COC(=O)c1ccc(F)c(S(=O)(=O)N2CCOCC2)c1)C1CCS(=O)(=O)C1 (centres undefined)	5.3	-4.3%[15.4 µM]	.	10.4%	.	1.2%	-16.3
N#CCC(=N)N1CCN(c2ccc(F)cc2)CC1	-4.5	6.3%	-15.9%	1.4%	?	.	-5.3
COc1ccc(Nc2cc(C)c3c(O)cccc3n2)cc1	-9.1	?	?	-1.8%	1.8	-16.0%	-12.5
CCOC(=O)NC(=S)Nc1cccc(NC(=S)NC(=O)OCC)c1	5.1	-41.6%[inhibitor]	5.7%	10.7%	-1.9	.	-2.6
Cc1ccccc1-n1c(SCC(=O)NCc2cccs2)nnc1-c1ccncc1	2.4	21.2%	3.4%	-4.9%	3.7	-0.5%	1.6
Cc1ccccc1-c1nnn(CC(=O)NC(=O)NC2CCCC2)n1	-3.2	-10.7%	.	-2.9%	.	-2.4%	.
Cc1cccc(N/C=C/C(=O)c2ccc(Cl)cc2)c1	15.7	25.3%	9.0%	9.8%	-0.4	-2.4%	11.0
COC(=O)CCCNC(=O)CCc1nnc(-c2ccc(-c3ccccc3)cc2)o1	1.4	5.3%	.	-2.9%	.	5.0%	.
CCOc1ccc(S(=O)(=O)NC(C)C(=O)NCc2ccncc2)cc1 (centres undefined)	-3.3	19.0%	20.2%	2.0%	4.5	.	-1.2
Cc1c(C(=O)N(C)C)sc(NC(=O)c2cc([N+](=O)[O-])cc([N+](=O)[O-])c2)c1C#N	-2.4	8.2%	-7.1%	39.8µM*	1.7	4.0%	-0.2
OC(CNCc1ccc(F)cc1)(c1ccccc1)c1ccc(F)cc1 (centres undefined)	17.9	-8.7%	9.4%	10.4%	1.4	0.5%	.
CC(=O)Nc1ccccc1-c1ccc(C)o1	7.3	-23.9%	-10.9%	7.2%	0.4	-0.7%	-9.0
Cc1ccccc1/C=C\c1nc(O)c([N+](=O)[O-])c(=O)[nH]1	2.1	?	2.6%	8.6%	2.2	1.3%	13.1
Cc1cc(C)cc(C(=O)N2CCN=C2SCc2ccc([N+](=O)[O-])cc2)c1	6.9	4.5%	?	8.5%	3.0	-2.1%	4.1
CC(=O)Nc1ccc(S(=O)(=O)Nc2ccccc2C(=O)N2CCCCCC2)cc1	-2.6	14.3%	21.7%	3.2%	0.1	-1.9%	-2.5
CCOc1ccc(/C=N/NC(=O)c2ccoc2C)cc1OC	-3.4	7.1%[15.4 µM]	-9.1%	-0.5%	0.2	.	7.8
CCc1ccc(NC(=O)NCC2CCN(c3ccc(OC)cc3)C2)cc1 (centres undefined)	-11.4	14.4%	10.4%	-1.8%	-2.3	-11.3%	-17.7
CCCc1nc2oc3c(NCc4ccccn4)ncnc3c2c2c1COC(C)(C)C2	6.3	-7.0%	-3.5%	11.9%	1.8	?	7.3
COc1cc(CO)cc(Br)c1OCC(=O)O	8.6	-39.5%[inhibitor]	-2.6%	7.4%	1.8	2.0%	-5.7
O=C(COC(=O)c1ccccc1O)NCC1COc2ccccc2O1 (centres undefined)	-10.9	26.3%	.	-3.1%	.	-3.6%	25.7
CC(Sc1ccccc1)C(=O)N1CCN(S(=O)(=O)c2ccccc2F)CC1 (centres undefined)	15.7	17.9%	13.4%	-6.4%	.	-2.9%	-8.3
CN(C(=O)COC(=O)COc1ccc2c(c1)CCC2)c1c(N)n(Cc2ccccc2)c(=O)[nH]c1=O	6.3	-26.3%[15.4 µM]	.	8.6%	.	.	-21.9
COc1cc2ccccc2cc1C(=O)N1CC(C)CC(C)C1 (centres undefined)	-3.7	17.8%	15.9%	-1.9%	.	-15.6%	-11.0
C=CC[C@H](CC(=O)N[C@H](CO)Cc1ccccc1)C(=O)N[C@H](COC(=O)[C@@H](CC=C)Cc1ccc(F)cc1)Cc1c[nH]c2ccccc12	4.6	.	.	-4.9%	.	-2.4%	.
N#C/C(=N\Nc1cccc(Cl)c1)C(=O)c1ccccc1	-15.2	0.1%	11.7%	15.8µM*	0.8	-0.8%	7.1
CC(C)c1ccc(NC(=O)CCNC(=O)N2CC(=O)Nc3ccccc32)cc1	20.6	?	11.8%	-11.0%	.	0.7%	?
CC(C)CN(CC(C)C)C(=O)CN1C(=O)NC2(CCCc3ccccc32)C1=O (centres undefined)	9.1	-2.1%	18.5%	5.8%	-0.1	.	-7.6
Fc1ccccc1/C=N/Nc1nc(N2CCCCC2)nc(N2CCCCC2)n1	8.7	4.0%	17.5%	1.3%	-2.0	0.4%	-14.0
COc1cc(/C=C/c2onc(C)c2[N+](=O)[O-])cc(OC)c1OC	0.0	8.7%[15.4 µM]	.	8.3%	.	0.0%	.
CCOC(=O)C1(Cc2cccc(OC)c2)CCCN(C(=O)c2cc(C)oc2C)C1 (centres undefined)	-4.7	27.5%	4.2%	2.2%	.	-1.0%	-19.4

Structural class, the entries above with fluorine (6)
SMILES	CtBP-E1A inh	gsp ag	Sfp inh	gsp antagonist	Menin MLL FP FL	ClpP mod	TRPV1 PAM
CN(C(=O)COC(=O)c1ccc(F)c(S(=O)(=O)N2CCOCC2)c1)C1CCS(=O)(=O)C1 (centres undefined)	5.3	-4.3%[15.4 µM]	.	10.4%	.	1.2%	-16.3
N#CCC(=N)N1CCN(c2ccc(F)cc2)CC1	-4.5	6.3%	-15.9%	1.4%	?	.	-5.3
OC(CNCc1ccc(F)cc1)(c1ccccc1)c1ccc(F)cc1 (centres undefined)	17.9	-8.7%	9.4%	10.4%	1.4	0.5%	.
CC(Sc1ccccc1)C(=O)N1CCN(S(=O)(=O)c2ccccc2F)CC1 (centres undefined)	15.7	17.9%	13.4%	-6.4%	.	-2.9%	-8.3
C=CC[C@H](CC(=O)N[C@H](CO)Cc1ccccc1)C(=O)N[C@H](COC(=O)[C@@H](CC=C)Cc1ccc(F)cc1)Cc1c[nH]c2ccccc12	4.6	.	.	-4.9%	.	-2.4%	.
Fc1ccccc1/C=N/Nc1nc(N2CCCCC2)nc(N2CCCCC2)n1	8.7	4.0%	17.5%	1.3%	-2.0	0.4%	-14.0
